# SARS PLP yeast: blocks SARS-CoV papain-like protease in a yeast assay; S. cerevisiae expressing SARS-CoV PLpro, growth rescue; control for the full effect not named in the record; Potency, µM (doses to about 32.9 µM), without a hit: at the highest dose activity, positive = growth rescue; actives 0.19% (n = 330,000); active means well fitted rising curve with a large enough effect; inconclusive means small, poorly fitted or top-dose-only effect; inactive means no such curve, though single readings can be large or run the other way; also: 0% is about no effect; nearly all actives have a fitted effect of over 55% in size; growth read by luminescence after 48 h
# LASV entry inh: inhibitors of Lassa virus binding or cell entry; Lassa virus pseudotype entry inhibition, cell reporter; control for the full effect not named in the record; Potency, µM (titrated, usually from 37.9 µM), without a hit: at the top dose activity change, negative = inhibition, usual class: inhibitors; actives 1.2% (n = 300,000); AID 540256; active means well fitted inhibition curve with a large enough effect; inconclusive means small, poorly fitted or top-dose-only effect, or effect the other way; inactive means flat fitted curve, though single readings scatter; tested in HEK293 cells; also: % is scaled to controls: 0 for no effect and ±100 for the full control effect; nearly all actives have a fitted effect of over 50% in size; luciferase read-out
# RE007 growth inh: less growth of the S. pombe RE007 Vpr strain; S. pombe RE007 Vpr strain, BacTiter-Glo ATP luminescence, 24 h; control for the full effect not named in the record; Potency, µM (series often up to 92.2 µM), without a hit: top-dose activity change, negative = less growth; actives 0.21% (n = 360,000); AID 651644; active = well fitted falling curve with a large enough effect; inconclusive = small, poorly fitted or top-dose-only effect; inactive = no such curve, though single readings can be large or run the other way;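 also: % is scaled to controls: 0 for no effect and ±100 for the full control effect; nearly all actives have a fitted effect of over 50% in size; the assay follows cell death caused by Vpr and the record does not say whether a fall means rescue or toxicity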
#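 Fission yeast RE007 carrying one integrated HIV-1 vpr copy, seeded at OD 0.01 in PMG+AL medium with 23 nL pinned compound. Grown 24 h at 30 degrees; viability read by BacTiter-Glo luminescence after 5 min.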
# Cruzain inh Det: inhibitors of Trypanosoma cruzi cruzain with detergent. purified cruzain, Z-FR-AMC fluorescence, 0.01% Triton. actives 0.43% (n = 200,000). Potency, µM, without a hit: max response, negative = inhibition, actives largely listed as inhibitors. P25779;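 also: plate controls were neutral wells for no effect and buffer without enzyme for full effect; nearly all actives have a fitted effect of over 40% in size; top concentration of the series not given in the record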
# Target sequence (P25779 123-467 limits assumed): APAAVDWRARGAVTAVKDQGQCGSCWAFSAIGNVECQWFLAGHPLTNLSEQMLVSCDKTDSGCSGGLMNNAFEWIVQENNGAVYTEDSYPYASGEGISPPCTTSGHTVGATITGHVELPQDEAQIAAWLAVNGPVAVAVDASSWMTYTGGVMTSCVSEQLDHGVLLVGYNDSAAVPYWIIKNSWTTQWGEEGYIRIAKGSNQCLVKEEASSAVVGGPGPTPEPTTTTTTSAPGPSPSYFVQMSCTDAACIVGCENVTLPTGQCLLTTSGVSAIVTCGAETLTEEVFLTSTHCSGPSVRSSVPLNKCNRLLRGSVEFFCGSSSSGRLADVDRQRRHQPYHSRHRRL
#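 Detergent-containing run (0.01% Triton X-100) in acetate buffer pH 5.5 with 5 mM DTT: enzyme at 1.5 nM final, 15 min compound preincubation at room temperature, then 2 uM Z-FR-AMC substrate. Activity taken as 60 s fluorescence increase at 360/450 nm.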
# NS1 function inh: influenza NS1 inhibition; S. cerevisiae slowed by influenza A NS1, growth recovery by OD600; Potency, µM (top dose mostly 46.1 µM), inactives show at the top dose activity, positive = more growth; actives 0.4% (n = 270,000); active means well fitted rising curve with a large enough effect; inconclusive means small, poorly fitted or top-dose-only effect; inactive means no such curve, though single readings can be large or run the other way; also: nearly all actives have a fitted effect of over 50% in size
#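 OD600 was taken as the measure of yeast growth restored by compound in an NS1-expressing S. cerevisiae strain. Cells had been washed out of glucose medium and diluted 1:100 into galactose -URA medium, pH 6.0.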
# Cruzain noTriton: inhibitors of Trypanosoma cruzi cruzain without detergent | actives 2.3% (n = 200,000) | Potency, µM, for inactives: max response, negative = inhibition, most hits filed as inhibitors | P25779 | purified cruzain, Z-FR-AMC fluorescence, no detergent | AID 1476;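 also: plate controls were enzyme without inhibitor for no effect and buffer without enzyme for full effect; nearly all actives have a fitted effect of over 40% in size; top concentration of the series not given in the record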
#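 Detergent-free condition (0.00005% Triton X-100) in acetate buffer pH 5.5 with DTT. 1.5 nM enzyme and compound were pre-mixed 15 min, then 2 uM Z-FR-AMC substrate added; reaction progress from fluorescence change between first and third reads (60 s).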
# Marburg entry inh: blocks Marburg virus binding to or entry into cells; AID 540276; Potency, µM (top dose mostly 37.8 µM), without a hit: at the highest dose activity change, negative = inhibition, actives largely listed as inhibitors; actives 1.8% (n = 300,000); Marburg virus pseudotyped entry inhibition, cell reporter; control for the full effect not named in the record; about a third of the inactives were read at about 46 µM; active = well fitted inhibition curve with a large enough effect; inconclusive = small, poorly fitted or top-dose-only effect, or effect the other way; inactive = flat fitted curve, though single readings scatter; tested in HEK293 cells; about a fifth of its hits are not listed in these tables; also: % is scaled to controls: 0 for no effect and ±100 for the full control effect; luciferase read-out
# StopGo reporter: FMDV 2A StopGo reporter, luciferase signal; actives 1.2% (n = 410,000); human cells with a luciferase reporter of 2A StopGo recoding; control for the full effect not named in the record; AID 1159524; Potency, µM (titrated, usually from 57.9 µM), inactives show at the top dose signal change, negative = less light; active = well fitted falling curve with a large enough effect; inconclusive = small, poorly fitted or top-dose-only effect; inactive = no such curve, though single readings can be large or run the other way; tested in HEK293T cells; also: % is scaled to controls: 0 for no effect and ±100 for the full control effect; nearly all actives have a fitted effect of over 45% in size; luciferase light after 4 h
# An asterisk follows results filed as active; ? = inconclusive; · = no result given; & = joins results of further samples; [ ] = dose if it differs, or a comment. Unless noted, calls follow the shape of the dose curve; as a rule, active = well fitted curve in the direction sought with a large enough effect; inconclusive = small, poorly fitted or top-dose-only effect, or another doubt; inactive = no such curve, though single readings can be large; an effect the other way counts as inactive or inconclusive. Potency is read from the fitted curve at half-maximal effect.
# A first look (three entries):
item	SMILES	SARS PLP yeast	LASV entry inh	Cruzain inh Det	RE007 growth inh	NS1 function inh	Marburg entry inh	Cruzain noTriton	StopGo reporter
1	CCC(=NCc1cc(OC)cc(OC)c1)c1c(O)n(C)c(=O)n(C)c1=O	3%	?	-0.1%	12%	-3%	21µM*	7%	?
2	CCOc1ccc(-c2[nH]ncc2Oc2ccccc2OC)c(O)c1	-11%	-25%	-12%	-15%	-139%	-25%	-22%	12%
3	COc1cc(C(=O)NNC(=O)C2CCCC2)cc(OC)c1OC	3%	11%[46.1 µM]	·	-3%	6%	6%[46.1 µM]	·	12%

# Main list (from the top)
item	SMILES	SARS PLP yeast	LASV entry inh	Cruzain inh Det	RE007 growth inh	NS1 function inh	Marburg entry inh	Cruzain noTriton	StopGo reporter
1	CCC(=NCc1cc(OC)cc(OC)c1)c1c(O)n(C)c(=O)n(C)c1=O	3%	?	-0.1%	12%	-3%	21µM*	7%	?
2	CCOc1ccc(-c2[nH]ncc2Oc2ccccc2OC)c(O)c1	-11%	-25%	-12%	-15%	-139%	-25%	-22%	12%
3	COc1cc(C(=O)NNC(=O)C2CCCC2)cc(OC)c1OC	3%	11%[46.1 µM]	·	-3%	6%	6%[46.1 µM]	·	12%
4	CCOC(=O)C1C(C)=C(Nc2ccc(OC)cc2)C(=O)N1c1ccc(OC)cc1 (stereo not given)	-4%	3%	-1.5%	6%	9%	-2%	13µM*	-15%
5	C/C(CC(=O)Nc1ccc2c(c1)OCCO2)=N\NC(=O)c1ccccc1Cl	-2%	-13%	·	16%	-5%	19%[46.1 µM]	·	31%[activator]
6	O=C(O)CC(NNC(=O)c1ccccc1)C(=O)Nc1ccc([N+](=O)[O-])cc1 (stereo not given)	0%	·	·	2%	15%	·	·	8%
7	CCc1ccccc1N(C)C(=O)Cn1cnc2sc(C)c(S(=O)(=O)N3CCN(c4ncccn4)CC3)c2c1=O	·	10%[46.1 µM]	-0.6%	·	·	0%[46.1 µM]	-2%	-11%
8	Cc1cc(OCC(=O)C(C)(C)C)c2c(C)c(C)c(=O)oc2c1	2%	?	-3.2%	-22%	-3%	?	0%	-9%
9	COCCNC(=O)C1(C)C=CC2(CCCCC2)N1C(=O)c1ccccc1 (stereo not given)	-13%	8%	3.1%&0.3%	7%	-14%	-5%	-1%&2%	7%
10	Cc1cccc(C2c3[nH]c4ccccc4c3CCN2C(=O)c2cc(CC(C)C)[nH]c(=O)n2)n1 (stereo not given)	-1%	·	·	25%	-10%	·	·	-4%
11	Cn1c(=O)c2c(nc(SCC(=O)NC3CCCC3)n2C)n(C)c1=O	6%	26%	·	16%	3%	4%[46.1 µM]	·	-18%
12	Cc1cccc(NC(=O)CSc2nnc(Cc3ccccc3)o2)c1	-1%	6%	·	-5%	1%	6%[14.2 µM]	·	11%
13	Cc1occc1C(=O)N/N=C/C(Br)=C/c1ccccc1	-5%	-23%	·	-18%	·	?	·	-53%
14	O=C(NNC(=O)c1ccc(F)cc1F)c1ccc(-n2cnnn2)cc1	-2%	18%[46.1 µM]	·	7%	6%	4%[46.1 µM]	·	-7%
15	CCN1CCCC1CNCc1ccccc1OCc1ccc(F)cc1 (stereo not given)	-3%	-17%	2.3%	-10%	2%	?	-3%	·
16	CCCCC(=O)Nc1c2c(nn1-c1ccc([N+](=O)[O-])cc1)CS(=O)(=O)C2	0%	·	·	3%	0%	·	·	-13%
17	COc1cc(C(=O)NC(=S)N(CCc2ccccc2)CCc2ccccc2)cc(OC)c1OC	?	?	-1.8%	·	22%	3.2µM*	5%	0%
18	CN1N=C2c3ccccc3CCC2C1c1ccc(C(F)(F)F)cc1 (stereo not given)	1%	·	·	-7%	-13%	·	·	26%
19	CC(=O)c1c(C)[nH]c(C2=NNC(=NC(C)(C)C)SC2)c1C	-7%	15%[46.1 µM]	·	-3%	·	21%[46.1 µM]	·	36%[activator]
20	Cc1cccc(Cn2c(SCC(=O)Nc3ccccc3)nc3c2c(=O)[nH]c(=O)n3C)c1	4%	·	-9.8%	-11%	?	·	?	-24%
21	Cc1ccccc1OCC(=O)OCC(=O)c1cc(C)n(C2CC2)c1C	-3%	-8%	·	-7%	·	2%	·	-8%
22	CCOc1cc(C=O)c(Br)cc1OC1CCCC1	1%	?	-1.6%	2%	3%	0%	3%	-30%
23	O=C(OCCN1C(=O)c2ccccc2C1=O)c1ccc(S(=O)(=O)N2CCCCCC2)cc1	1%	1%	-1.2%	-2%	-2%	24%&24%	16%	-24%
24	O=C(c1ccco1)N1CCN(c2nc3ccccc3c(=O)n2-c2ccccc2)CC1	-4%	?	-6.4%	-2%	-31%	-28%	0%	7.1µM*
25	COc1ccc(Cl)cc1NC(=O)C1CCN(S(=O)(=O)c2ccc3c(c2)CCCN3C(=O)C2CCC2)CC1	·	8%[46.1 µM]	1.8%	·	·	·	-10%	0%
26	CCN(CC)C1CCCCC1NS(=O)(=O)c1ccc(Cl)cc1 (stereo not given)	1%	·	-2.3%	-8%	-5%	·	-8%	-22%
27	COc1ccccc1CCN1COc2c(cc3c(C)c(C)c(=O)oc3c2C)C1	·	6%[46.1 µM]	-12%	·	·	?	-9%	-7%
28	O=c1c(C(c2ccc(O)cc2)c2c(O)nc3n(c2=O)CCCS3)c(O)nc2n1CCCS2	-17%	12%	0.1%	3%	-3%	12%	-5%	-1%
29	O=C(CCc1cn(Cc2ccc(F)cc2)c2ccccc12)NC1CCCCC1	·	-11%[46.1 µM]	-1.2%	·	·	·	-1%	-29%
30	O=C(O)CSc1cn(Cc2ccccc2)c2ccccc12	1%	0%	·	8%	-3%	?	·	-8%
31	Cc1ccc(O)c(NC(=O)CCC2CCCCC2)c1	-7%	-13%	1.2%	10%	-37%	0%	-3%	40%[activator]
32	Cc1c(C(=O)N2CCN(Cc3ccc4c(c3)OCO4)CC2)cccc1[N+](=O)[O-]	19%	-3%	-4.5%	33%	12%	?	?	-45%
33	COc1ccc(/C=C/C(=O)O)cc1S(=O)(=O)NCc1ccco1	0%	0%[46.1 µM]	·	3%	-3%	4%[46.1 µM]	·	0%
34	O=C(/C=C/c1cccc(Cl)c1)OCc1cn2cc(Cl)ccc2n1	0%	-8%	·	-8%	6%	?	·	3%
35	O=C(c1cc(COc2c(F)cccc2F)on1)N1CCCCCC1	?	-2%	·	-15%	-9%	11%	·	65%[activator]
36	CC[C@@]1(O)C(=O)OCc2c1cc1n(c2=O)Cc2cc3c(CN(C)C)c(O)ccc3nc2-1	·	·	1.2%&1.9%	4%[18.4 µM]	-8%	·	3%&-8%	-12%&-1%
37	CCC(c1nnnn1CC1CCCO1)N(CCN1CCOCC1)Cc1cc2cc(C)ccc2[nH]c1=O (stereo not given)	1%	5%	5.4%	-12%	2.2µM*	-1%[46.1 µM]	-7%	0%
38	N#Cc1cc2c(nc1SCC(=O)NCc1ccc3c(c1)OCO3)CCCCC2	6%	-22%[14.3 µM]	-1.0%	-8%	-15%	12%	-21%	-12%
39	COC(=O)c1sccc1NC(=O)COc1ccc(Cl)cc1Cl	3%	18%	-2.6%	-6%	-14%	?	-10%	27%
40	COCC(=O)N1CCC(Oc2ccc(C(=O)N3CCCCCC3)cc2)CC1	1%	0%	·	1%	4%	13%	·	19%
41	O=C(Nc1cccc(O)c1)C(Cc1ccccc1)N1C(=O)c2cccc3cccc(c23)C1=O (stereo not given)	-5%	-13%	-2.6%	-4%	21%	-8%	-9%	-20%
42	CC(C)c1ccccc1Oc1c(C(F)(F)F)oc2c(CN3CCN(C)CC3)c(O)ccc2c1=O	·	2%[46.1 µM]	-3.1%	·	·	2%[46.1 µM]	-5%	-6%
43	O=c1oc2ccccc2cc1-c1nc2c(s1)CCCC2	-8%	2.9µM*	-16%	-4%	-3%	?	-4%	-25%
44	O=C(CN1C(=O)NC2(CCCC2)C1=O)Nc1ccc(F)c([N+](=O)[O-])c1	2%	0%	·	2%	3%	0%[46.1 µM]	·	-29%
45	Cc1noc2nc(C(=O)O)nc(N3CCCCC3)c12	·	2%[46.1 µM]	-2.1%	·	·	18%[46.1 µM]	5%	-9%
46	CC(=O)C1=NOC2C(=O)N(c3ccc(Cl)cc3)C(=O)C12 (stereo not given)	1%	·	·	-5%	-3%	·	·	1%
47	COc1cc2cc(CNc3ccccc3)c(=O)n(CC(=O)Nc3ccccc3)c2cc1OC	·	14%[46.1 µM]	-3.8%	·	·	·	-4%	9%
48	CNS(=O)(=O)c1cnccc1N1CCN(c2cccc(Cl)c2)CC1	·	5%	-5.8%	7%	3%	1%	3%	-29%
49	Cc1cccc(-n2c(-c3csc(C)c3)n[nH]c2=S)c1	7%	0%	-3.0%	5%	-11%	?	3%	5%
50	CCC(C)(C)NC(=O)/C=C/c1cccs1	4%	8%	-0.7%	3%	4%	1%	-2%	23%

# Other entries.
item	SMILES	SARS PLP yeast	LASV entry inh	Cruzain inh Det	RE007 growth inh	NS1 function inh	Marburg entry inh	Cruzain noTriton	StopGo reporter
51	Cc1[nH]c2ccc(S(N)(=O)=O)cc2c1C	?	14%	-2.1%	11%	8%	?	-16%	19%
52	COc1ccc(OC)c(CCNC(=O)c2nn(C)c3c2CS(=O)(=O)c2ccccc2-3)c1	-1%	?	·	5%	7%	?	·	-11%
53	CCOc1ccc(C(=O)NCC(=O)OCC(=O)c2ccc3c(c2)-c2ccccc2C3)cc1	13%	?	-13%	-2%	-1%	17%	?	-12%
54	COc1ccc(-c2cc(C(=O)N3CCCCCC3)no2)cc1OC	-2%	?	·	25%	-7%	16%[46.1 µM]	·	72%[activator]
55	O=c1[nH]c2ccc(S(=O)(=O)Nc3cc(Cl)ccc3O)cc2o1	·	4%[46.1 µM]	-14%	·	·	13%[46.1 µM]	-9%	30%
56	CCn1ncc(Br)c1C(=O)Nc1ccc(-c2ccno2)cc1	2%	·	·	-4%	-1%	·	·	-8%
